HIV TAR-Tat: HIV-1 TAR-Tat binding disruption; HIV-1 TAR RNA, Tat peptide displacement FRET; stronger effect = higher value; hit rate 0.6% among 100,000; z-score (concentration not given with the values);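 note: score is relative to mean and SD of negative controls; some compounds called inactive have numbers as strong as hits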
CDC25B-CDK2 inh: human CDC25B-CDK2/CyclinA binding inhibition; P30305+P24941; HTRF CDC25B-CDK2/CyclinA binding, anti-His/anti-Flag; stronger effect = higher value; z-score (concentration not given with the values); hit rate 0.72% among 94,000; AID 1259370;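 note: score is relative to mean and SD of negative controls; strong numbers were not always called active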
An asterisk follows results filed as active; / = not tested or not shown.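 Rule for the calls: active = z-score from 3 up in half or more of its runs; inactive = the rest.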

SMILES	HIV TAR-Tat	CDC25B-CDK2 inh
O=C1COc2ccc(S(=O)(=O)NCc3ccc(Cl)cc3)cc2N1	2.43	/
CCC(CC)C(=O)N(C)C(c1cccs1)c1c[nH]c2ccccc12 (configuration not stated)	1.22	1.67
COc1ccc(NC(=O)C2CCCN(S(=O)(=O)c3ccc4[nH]c(=O)oc4c3)C2)c(OC)c1 (configuration not stated)	-0.09	/
CCOc1ccccc1C1C(C#N)=C(N)Nc2onc(-c3ccccc3)c21 (configuration not stated)	/	-0.36
COC(=O)C1=C(C)NC2=C(C(=O)CC(c3ccc(OC)cc3)C2)C1c1ccc(OC)cc1 (configuration not stated)	2.81	-1.36
COCCn1c(CN2CCCCC2)nc2c1c(=O)n(C)c(=O)n2C	-0.19	-1.12
O=C1CCc2cc(S(=O)(=O)N3CCN(S(=O)(=O)c4cccc(F)c4)CC3)cc3c2N1CC3	1.06	/
CCOC(=O)c1c(C)[nH]c(C)c1S(=O)(=O)N1CCC(C(=O)N2CCn3c2nc2ccccc23)CC1	0.69	/
Cc1noc(-c2ccccc2)c1NC(=O)N1CCN(C)CC1	/	-0.72
Cc1ccc(S(=O)(=O)n2nc(C)c(S(=O)(=O)N3CCCC(C)C3)c2C)cc1 (configuration not stated)	1.35	/
Cc1nn(C)c(Sc2ccc(C(F)(F)F)cn2)c1[N+](=O)[O-]	/	-0.77
CC(=O)Nc1nonc1-c1nnc(SCC(=O)NC2CCCC2)n1-c1ccccc1	0.96	-1.49
CSc1ncc(C(=O)Nc2ccc(F)cc2)c(C(F)(F)F)n1	-0.47	/
Cc1nc2c(Br)cc(Br)cc2c(=O)n1Cc1cccs1	/	-2.07
O=C(NCc1ccco1)c1nnc(-c2ccc3c(c2)OCO3)o1	-7.22	-1.03
O=C(O)c1onc2ccccc12	/	-1.92
O=C(O)c1cccc(N2C(=O)c3ccc4c5c(ccc(c35)C2=O)CC4)c1	/	8.86*
Cc1oc(-c2cccc(Cl)c2)nc1Cn1nc(C)c2c(C)onc2c1=O	-2.39	/
O=C1COc2ccc(S(=O)(=O)N3CCC(C(=O)NC4CCCC4)CC3)cc2N1	1.93	/
O=C(c1cc2c(s1)-c1ccsc1CC2)N1CCOCC1	-1.07	/
CC(C)S(=O)(=O)c1oc(-c2cccs2)nc1S(=O)(=O)c1ccccc1	-2.02	-2.03
O=C(Nc1ccno1)N1CCOCC1	/	0.31
CC(=O)N1c2c(cc(Br)cc2S(=O)(=O)Nc2cc(F)ccc2F)CC1C (configuration not stated)	/	-0.49
CCCNc1ncnc2c1cnn2-c1ccc(C)cc1C	2.52	/
CC(C)CNC(=O)C1CCCN(c2nnc(N3CCCCC3=O)s2)C1 (configuration not stated)	1.21	/

A different layout for five compounds above:
SMILES | HIV TAR-Tat | CDC25B-CDK2 inh
O=C(O)c1cccc(N2C(=O)c3ccc4c5c(ccc(c35)C2=O)CC4)c1 | / | 8.86*
CCC(CC)C(=O)N(C)C(c1cccs1)c1c[nH]c2ccccc12 (configuration not stated) | 1.22 | 1.67
CC(=O)Nc1nonc1-c1nnc(SCC(=O)NC2CCCC2)n1-c1ccccc1 | 0.96 | -1.49
CSc1ncc(C(=O)Nc2ccc(F)cc2)c(C(F)(F)F)n1 | -0.47 | /
O=C1CCc2cc(S(=O)(=O)N3CCN(S(=O)(=O)c4cccc(F)c4)CC3)cc3c2N1CC3 | 1.06 | /

Following part
SMILES	HIV TAR-Tat	CDC25B-CDK2 inh
Cc1noc(/C=C/c2ccc(S(=O)(=O)Nc3cccc(Cl)c3)s2)c1[N+](=O)[O-]	-0.32	/
COc1ccc2c(c1)nc(NCCO)n2C	9.56	0.39
CN(C)C(CNC(=O)c1cccs1)c1ccco1 (configuration not stated)	1.59	-1.11
CCCc1nc(N2CCCC2)c(C#N)c2c1CCCC2	/	-1.38
CCN1CCc2c(sc(-n3cccc3)c2CNC(=O)NCC(C)C)C1	-3.23	-1.64
O=C(Cc1ccccc1)N1N=C(c2ccc(Cl)cc2)CC1(O)C(F)(F)F (configuration not stated)	/	0.38
Cc1c(-c2nc(-c3ccc4c(c3)OCO4)no2)nnn1-c1cccc(F)c1	1.34	/
CCOC(=O)c1oc2c(c1C)-c1nn(Cc3ccc(C)cc3)cc1CC2	0.94	-0.86
O=C(Nc1sc2c(c1C(=O)NCc1ccco1)CCCC2)c1cc(=O)c2ccccc2o1	-0.87	-0.45
CC1=NN(C(=O)c2cccc(C)c2O)C(O)(C(F)(F)F)C1 (configuration not stated)	/	-1.47
CCSCCOC(=O)C1=C(C)NC2=C(C(=O)CC(c3ccccc3)C2)C1c1ccc(F)cc1 (configuration not stated)	2.43	-0.42
Cc1ccc2[nH]cc(S(=O)(=O)c3ccc(F)cc3)c(=O)c2c1	0.24	-1.5
Nc1ncccc1NC(=O)CCC(=O)O	0.11	14.4*
CCc1ccc(S(=O)(=O)c2nnn(-c3cccc(C)c3)c2N)cc1	-0.51	0.1
COc1ccc(Cl)cc1NC(=O)N1CCn2cccc2C1C (configuration not stated)	-4.45	/
Cn1cnc(S(=O)(=O)Nc2ccc3c(c2)OCO3)c1	1.73	/
Cc1nc2ccccc2n1CCCOc1ccccc1	0.84	-0.48
COc1cccc(OCC(O)CN2CCN(CCN3C(=O)c4cccc5cccc(c45)C3=O)CC2)c1 (configuration not stated)	0.65	0.78
CCOC(=O)CCCCC(=O)c1[nH]c(=O)[nH]c1Cn1ccnc1	1.46	0.16
Cc1cccc(-c2nc(SCc3cc(=O)c4ccc(C)c(C)c4[nH]3)n[nH]2)c1	-0.26	/
COc1ccc(N2C(=O)c3ccccc3C2(O)Cc2ccccc2)cc1 (configuration not stated)	/	-2.01
O=c1oc2ccccc2c(O)c1CN1CCCCC1	/	-1.19
CC(C)(C)c1cc2ncnc(N3CCCCC3)c2s1	/	-1.26
CCOC(=O)C(=CNNc1ccc(C(=O)O)cc1[N+](=O)[O-])C(=O)OCC	/	-1.53
Cc1nnc2c3ccccc3nc(N(C)C3CCCCC3)n12	1.23	/

Laid out differently: results already given
Sequence of screens: HIV TAR-Tat, CDC25B-CDK2 inh
Cc1cccc(-c2nc(SCc3cc(=O)c4ccc(C)c(C)c4[nH]3)n[nH]2)c1
    -0.26, /
COc1ccc(N2C(=O)c3ccccc3C2(O)Cc2ccccc2)cc1 (configuration not stated)
    /, -2.01
O=c1oc2ccccc2c(O)c1CN1CCCCC1
    /, -1.19
CC(C)(C)c1cc2ncnc(N3CCCCC3)c2s1
    /, -1.26
CCOC(=O)C(=CNNc1ccc(C(=O)O)cc1[N+](=O)[O-])C(=O)OCC
    /, -1.53

Additional structures
SMILES	HIV TAR-Tat	CDC25B-CDK2 inh
CCOC(=O)c1c(C)c(C(=O)NC2CC(C)CC(C)(C)C2)c(C)n1CC (configuration not stated)	/	-1.48
CCN(CC)S(=O)(=O)c1c(C)nn(S(=O)(=O)c2ccc(Br)cc2)c1C	0.24	/
N/C(Cc1ccc(-c2csnn2)cc1)=N\OC(=O)c1ccc(C(F)(F)F)cc1	/	-0.28
O=C(c1cc2c(s1)-c1ccsc1CC2)N1CCCC1	-0.46	/
Cc1noc2ncnc(N3CCN(C(=O)c4ccco4)CC3)c12	0.3	/
CC(=O)c1ccccc1OCC(=O)O	/	-2.34
Cc1ccc(-c2nsc(NC(=O)COc3ccc(F)cc3)n2)s1	-1.02	-3.62
Cc1ccc(S(=O)(=O)NCCc2cn3ccsc3n2)cc1	2.39	/
Cc1ccc(Cn2c(C(O)c3ccccc3)nc3ccccc32)cc1 (configuration not stated)	1.12	-1.15
Cc1onc(-c2c(F)cccc2Cl)c1C(=O)NC1CCSC1=O (configuration not stated)	1.19	0.31
c1ccc(-c2csnn2)cc1	/	-2.81
Cc1nn(C)c(C)c1CNC(=O)Nc1ccc(Cl)cc1	0.05	/
CSc1cccc(NC(=O)CSc2nc3c(c(=O)[nH]2)CCC3)c1	1.71	-0.92
Cc1nnc2n1NC(c1ccc(Cl)cc1)C(C(=O)N1CCCCC1)S2 (configuration not stated)	0.74	-1.73
CC1CSc2ccc(S(=O)(=O)N3CCC(N(C)C4CCCCC4)CC3)cc2NC1=O (configuration not stated)	0.23	/
Cc1nc(-c2ccccc2)sc1C(=O)NNC(=O)c1cccc2ccccc12	/	1.35
Cc1ccccc1CNc1nc(N(C)C)nc2c1cnn2C	0.8	/
Cc1ccc(C2CC(c3ccc(C)c(C)c3)Nc3nnnn32)cc1 (configuration not stated)	9.53	/
Cc1ccc(OS(=O)(=O)c2c(Cl)sc(Cl)c2Br)c([N+](=O)[O-])n1	/	1.14
CCSc1ncc(Cl)c(C(=O)N(Cc2ccc(Cl)cc2)C2CCS(=O)(=O)C2)n1 (configuration not stated)	0.2	-1
COC(=O)c1c(NC(=O)C2COc3ccccc3O2)sc2c1CCCC2 (configuration not stated)	2.12	-0.12
CCN(CC)c1ccc(C2C(C(N)=O)=C(C)Nc3ncnn32)cc1 (configuration not stated)	-1.02	/
CC(OS(=O)(=O)c1cc(Cl)sc1Cl)c1nc2ccccc2[nH]1 (configuration not stated)	/	-1.4
O=C(O)c1ccc(N2CCc3ccccc32)s1	0.98	0.2
Cc1nc2ccccn2c(=O)c1NC(=O)Cc1ccc(F)cc1	0.4	/
Other compounds:
SMILES	HIV TAR-Tat	CDC25B-CDK2 inh
O=S(=O)(Nc1ccc(F)cc1F)c1ccc2[nH]c3c(c2c1)CCCC3	-0.92	/
CCOC(=O)C1=C(C)NC2=C(C(=O)CC(c3cccs3)C2)C1c1cc(Br)ccc1F (configuration not stated)	0.28	-0.66
Cc1cc(Br)cc2c1N(Cc1ccccc1OC(C)C)C(=O)C2=O	2.69	-1.57
COc1ccc2scc(N3CCCCC3)c(=O)c2c1	1.57	/
CCOCCCNc1oc(/C=C/c2ccc(F)cc2)nc1C#N	1.55	-1.1
O=C(NCCc1ccsc1)c1cc2c(s1)-c1ccc(Cl)cc1S(=O)(=O)C2	0.19	-10.4
CCCN(C(=O)[C@H]1[C@@H]2C[C@@H]3[C@H]1C(=O)O[C@@H]3C2)c1ccccc1OCC	0.42	-1.66
CCCCC(NC(C)=O)c1nc2ccccc2n1CCC (configuration not stated)	-0.35	-1.14
O=C(Nc1c(C(c2cccnc2)N2CCOCC2)oc2ccccc12)c1cccs1 (configuration not stated)	0.88	-0.48
Cc1noc(-c2ccc(C)c(S(=O)(=O)NCc3ccccc3)c2)n1	1.75	/
COc1ccc(NS(=O)(=O)c2ccc(CN3C(=O)c4cccnc4C3=O)s2)c(OC)c1	0.08	/
CCOc1ccc(NC(=O)N(CCC(C)C)C(C)c2cccs2)cc1 (configuration not stated)	1.06	/
O=C1Nc2ccccc2/C1=C/c1c(Sc2ccc(Cl)cc2)nc2sccn12	/	-0.56
CCOC(=O)N1CCC(N2C(=O)c3ccccc3C2Nc2cc(Cl)c(OC)cc2OC)CC1 (configuration not stated)	0.95	2.55
CCOC(=O)c1c(C)oc2nc(C)nc(N3CCc4ccccc43)c12	0.92	/
COc1cccc(CNc2c3c(nc4ncnn24)CCC3)c1	1.23	/
CCC(=O)N1c2ccc(S(=O)(=O)NC3CCCc4ccccc43)cc2CC1C (configuration not stated)	1.71	/
Fc1ccccc1Nc1ncnc2c1nc1n2CCCC1	0.76	/
Cc1c(Cl)cccc1NC(=O)Nc1csc2c1CCCC2	0.64	-1.52
COc1ccc(C(=O)OCc2cc(=O)n3nc(C4CCCCC4)sc3n2)cc1OC	1.51	/
Cc1ccc2c(c1)-c1cc(C)nn1C(c1ccccc1O)N2 (configuration not stated)	1.46	-0.03
O=C(CC(NCc1ccco1)C(=O)O)Nc1ccccc1 (configuration not stated)	/	-0.94
O=[N+]([O-])c1cc(Br)cnc1Sc1nnc(SCC2CC2)s1	/	-1.39
O=C(Nc1ccc(Cl)cc1)c1cc(-c2cccs2)on1	1.18	0.69
O=C(NCc1c(-n2cccc2)sc2c1CCCC2)NC1CCCC1	3.86	-1.3
(further entries)
SMILES	HIV TAR-Tat	CDC25B-CDK2 inh
CCOC(=O)C1=C(C)Nc2nc3ccccc3n2C1c1ccc(O)c(OCC)c1 (configuration not stated)	0.18	-1.01
CC1CCCN(c2nn3c(C(=O)NC4CC4)cc(=O)nc3s2)C1 (configuration not stated)	0.89	/
Cc1nc2nc(C)c(CCC(=O)Nc3ccc4c(c3)OCO4)c(C)n2n1	0.4	0.09
CCCc1nc2nc(C)c(NS(=O)(=O)c3ccc(OC)c(OC)c3)c(=O)n2[nH]1	0.39	-0.88
CC1CC(C)CN(c2csc3ccc(Cl)cc3c2=O)C1 (configuration not stated)	0.28	/
CC1CCN(C(=O)CSc2nnc(Cn3c(=O)sc4ccccc43)n2C)CC1	/	-0.27
COc1cc2c(c(OC)c1)C(c1ccc(F)cc1)C1=C(CC(C)(C)CC1=O)N2 (configuration not stated)	1.82	1.71
OCCN(CCO)c1ncnc2c1cnn2-c1cccc(Cl)c1	2.49	/
COC(=O)c1cc(N2CCNCC2)nc2ccccc12	1.43	-0.22
Cc1ccccc1C1C2=C(CCCC2=O)Nc2nc(SCc3ccc(C(=O)O)cc3)nn21 (configuration not stated)	4.9	-1.4
O=C(Nc1ccc(F)cc1F)C1=CCN(S(=O)(=O)c2ccc(F)cc2)CC1	-0.34	0.41
COc1ccc(-c2cc3nc(C)cc(N4CCN(c5nc(C)cc(C)n5)CC4)n3n2)cc1OC	0.9	-4.33
Cn1c2cn(-c3ccccc3)c(-c3ccccc3)c2c(=O)n1-c1ccccc1	0.43	-0.61
CC(NC(=O)Cn1ncn2nc(-c3cccs3)cc2c1=O)c1ccc2c(c1)OCCO2 (configuration not stated)	0.44	-4.43
CC(C)CCNC(=O)C1=Cc2cc(Br)ccc2OC1	1.4	/

Compound activity: PubChem, Center for Chemical Genomics, University of Michigan
